VDR inh = vitamin D3 receptor (human) inhibition | AID 504847 | 400,000 tested, 0.93% active | P11473 | VDR-SRC2-3 peptide fluorescence polarization, 2 h | Potency, µM, inactives show max response, negative = inhibition, usual class: inhibitors; active = well fitted inhibition curve with a large enough effect; inconclusive = small, poorly fitted or top-dose-only effect, or another doubt; inactive = no such curve, though single readings can be large or run the other way; also: series mostly up to about 120 µM
Target sequence (P11473 whole entry, looked up): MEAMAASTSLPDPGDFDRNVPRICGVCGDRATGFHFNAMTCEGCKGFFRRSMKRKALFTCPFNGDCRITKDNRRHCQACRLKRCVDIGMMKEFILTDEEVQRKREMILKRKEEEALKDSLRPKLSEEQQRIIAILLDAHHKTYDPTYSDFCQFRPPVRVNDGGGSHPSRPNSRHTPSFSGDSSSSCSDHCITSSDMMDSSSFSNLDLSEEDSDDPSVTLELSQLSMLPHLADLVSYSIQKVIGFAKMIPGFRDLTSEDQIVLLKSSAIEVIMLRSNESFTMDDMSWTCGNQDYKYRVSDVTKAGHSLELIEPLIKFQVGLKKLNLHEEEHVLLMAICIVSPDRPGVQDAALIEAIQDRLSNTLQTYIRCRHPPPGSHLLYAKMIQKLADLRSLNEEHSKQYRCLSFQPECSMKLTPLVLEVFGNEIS
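Two reagent solutions held at 4 deg C in the dark were dispensed, compounds pinned at 23 nl, and the mixture incubated 2 h at room temperature. Read-out: fluorescence polarization of VDR–SRC2-3 peptide binding.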
An asterisk follows results filed as active; ? = inconclusive; & = joins results of further samples; [ ] = dose if it differs, or a comment. % is scaled to controls: 0 for no effect and ±100 for the full control effect; potency is read from the fitted curve at half-maximal effect. The list is partial, so the mix of outcomes need not match the whole.

SMILES	VDR inh
C/C=C(/C)C(=O)OC1CC(C)(C)C[C@H]2C3=CC[C@@H]4[C@@]5(C)CCC(O[C@@H]6O[C@@H](C(=O)O)[C@@H](O)C(O[C@@H]7OC[C@H](O)[C@@H](O)[C@@H]7O[C@@H]7OC(CO)C(O)[C@@H](O)[C@@H]7O)C6O[C@@H]6OC(CO)C(O)C(O)C6O)[C@@](C)(CO)[C@@H]5CC[C@]4(C)[C@]3(C)CC(O)[C@@]12CO (some centres undefined)	-11%
Cc1ccccc1NCC(=O)N/N=C/c1ccc([N+](=O)[O-])cc1	0%
CC(C)NC(=O)c1cnc2sc(N3CCCCCC3)nn2c1=O	15%
Cc1ccc(S(=O)(=O)N2CCCC(c3nc4c(nnn4Cc4ccc5c(c4)OCCO5)c(=O)[nH]3)C2)cc1 (centres undefined)	2%
O=C(CSc1nc(=O)n2ccccc2n1)NCc1ccc(F)cc1	-7%
CC1(C)C(=O)OC(c2cccc([N+](=O)[O-])c2)C2(CCCCC2)C1=O (centres undefined)	6%
O=C(CSc1nnc(COc2ccccc2)o1)NCCc1ccccc1	?
Cc1noc(-c2ccc(N3CCCCC3C)c([N+](=O)[O-])c2)n1 (centres undefined)	19%
N#Cc1c(NC(=O)CSCC(=O)O)sc2c1CCCC2	-7%
Cc1cc(C)n2nc(Nc3ccccc3)cc2n1	0%
COc1ccc(-n2c(Cc3ccccc3)nnc2SCc2nc(-c3ccccc3C)no2)cc1	-9%
CCCc1cc(C(=O)Nc2ccc(C(=O)OC)cc2)cs1	6%
CCOC(=O)CSc1nc(C)cc2c1C(=O)OC2	16%
CCCCN(C)CCCNC(=O)CN1C(=O)COc2ccc(S(=O)(=O)N3CCOCC3)cc21	-11%&-18%
Cn1c(N)c(C(=O)COC(=O)/C=C/c2ccc(S(=O)(=O)N3CCOCC3)cc2)c(=O)n(C)c1=O	-5%
CC1Cc2cc(S(=O)(=O)CCC(=O)Nc3ccc(F)c(Cl)c3)ccc2N1C(=O)C1CC1 (centres undefined)	8%
O=C(O)COc1ccc2c3c(c(=O)oc2c1)CCCC3	17%
CC(=O)N1c2ccccc2CC1C(=O)N1CCN(c2cc(Cl)ccc2C)CC1 (centres undefined)	10%
CCC1(c2ccccc2)NC(=O)N(CC(=O)Nc2ccc(S(=O)(=O)N3CC(C)CC(C)C3)cc2)C1=O (centres undefined)	-14%
O=Cc1sc(Nc2ccccc2)nc1Cl	16%

Four structures out of the list, arranged by heavy-atom count, rising:
SMILES	VDR inh
O=C(O)COc1ccc2c3c(c(=O)oc2c1)CCCC3	17%
CC(C)NC(=O)c1cnc2sc(N3CCCCCC3)nn2c1=O	15%
CC1Cc2cc(S(=O)(=O)CCC(=O)Nc3ccc(F)c(Cl)c3)ccc2N1C(=O)C1CC1 (centres undefined)	8%
Cc1ccc(S(=O)(=O)N2CCCC(c3nc4c(nnn4Cc4ccc5c(c4)OCCO5)c(=O)[nH]3)C2)cc1 (centres undefined)	2%

(further entries)
SMILES	VDR inh
CSc1cccc(NC(=O)C2CCCN(S(=O)(=O)c3ccc(F)cc3)C2)c1 (centres undefined)	14%
COc1ccc(C(=O)COc2ccc(F)cc2)c(O)c1	6%
Oc1ccc(-c2cn3ccccc3n2)cc1O	-26%
O=C1CC(NCCc2ccccc2)C(=O)N1CCc1ccccc1 (centres undefined)	-3%
Oc1c(Br)cc(Br)c2cccnc12	?
Cc1ccccc1-n1c(SCC(=O)N/N=C/c2ccccc2OCC(=O)O)nc2ccccc2c1=O	11%
COc1ccc2cc(S(=O)(=O)c3ccccc3)c(=O)oc2c1	-19%
COc1cc(C2NC(=O)NC3=C2C(=O)OC3)cc(OC)c1OC (centres undefined)	-22%
Cc1nn(-c2ccccc2)c(N2CCCC2)c1/C=C1\N=C(c2ccccc2)OC1=O	-4%
Cc1ccc2nc(-c3ccc(NC(=O)CN4CCN(c5ccccn5)CC4)cc3)sc2c1	-2%
COc1ccc(NC(=O)Nc2nnc(Cc3ccc(OC)c(OC)c3)s2)cc1	9%
O=c1cc(C(F)(F)F)nc(SC/C=C/c2ccccc2)[nH]1	-23%
CN(C)/C=C1\C(=O)N(C)N=C1C(F)(F)F	9%
CN(C)/C=N/c1nc2ncc(-c3ccc(Cl)cc3)c(/N=C/N(C)C)n2n1	-8%
CCN(CC)CCCNC(=O)c1cc2c(Cl)nc3ccccc3c2s1	-10%
CC(=O)NCC(=O)OCC(=O)c1ccc(Cl)cc1	2%
COc1ccc(CCC(=O)Nc2cccc(S(=O)(=O)N(C)C)c2)cc1OC	6%
O=C(CCCC(=O)OCC(Cl)=C(Cl)Cl)Nc1cccc2ccccc12	-1%
O/N=C(\c1ccc(Cl)cc1Cl)c1ncc(C(F)(F)F)cc1Cl	-2%
Nc1ncnc2c1ncn2[C@@H]1O[C@H](COS(=O)(=O)O)[C@@H](O)[C@H]1O	-2%

Four entries from above, field by field:
COc1ccc(NC(=O)Nc2nnc(Cc3ccc(OC)c(OC)c3)s2)cc1
  VDR inh = 9%
O=c1cc(C(F)(F)F)nc(SC/C=C/c2ccccc2)[nH]1
  VDR inh = -23%
CN(C)/C=C1\C(=O)N(C)N=C1C(F)(F)F
  VDR inh = 9%
CN(C)/C=N/c1nc2ncc(-c3ccc(Cl)cc3)c(/N=C/N(C)C)n2n1
  VDR inh = -8%

The listing continues.
SMILES	VDR inh
CC1(C)OC(=O)C2(Cc3ccccc3N3CCCCC32)C(=O)O1 (centres undefined)	-8%
COc1ccc(CN(C)CCCn2cnc3c(OCc4ccccc4)ncnc32)cc1OC	-11%
C1CN(c2nc3nonc3nc2N2CCSCC2)CCO1	0%
COc1ccc2c(c1)C(NC(C)=O)C(=O)N2CCc1ccccc1 (centres undefined)	11%
COC(=O)c1c(NC(=S)Nc2ccc(CC(=O)O)cc2)sc(C)c1C	-3%
COc1ccc(CNC(C)(C)C)cc1Cl	-6%
CCCCOC(=O)Nc1ccccc1C(=O)OC	-1%
COc1ccc(C(=O)OCC(=O)NC2CCCC2)cc1OC	-3%
COc1cccc(C(=O)Nc2ccccc2C(=O)OCc2cc(=O)n3nc(C4CC4)sc3n2)c1	6%
COc1ccc(-c2sc3ccccc3c2C#CCO)cc1	1%
COc1ccccc1Oc1cn[nH]c1-c1ccc(OCC(=O)NN)cc1O	-6%
O=C(CSc1nnc(C2CC2)n1Cc1ccccc1)N1CCN(S(=O)(=O)c2ccccc2)CC1	5%
Cc1cc(C(F)(F)F)c(C#N)c(=O)[nH]1	3%
CC1(C)C(=O)N(OCc2ccccc2)C(C)(C)C(=O)N1OCc1ccccc1	-3%
COCC(=O)Nc1ccc(S(=O)(=O)Nc2ccccn2)cc1	-13%
COc1ccc([C@H]2/C=C\CN(C(=O)CC(C)(C)C)[C@@H](C)C(=O)N2Cc2ccc(F)cc2)cc1	-13%
CN1CCN(c2ncc3nc(-c4ccc(Cl)cc4)c(=O)n(Cc4ccc(F)cc4)c3n2)CC1	5%
Cc1nc2ccccc2n1Cc1ccccc1Br	-11%
CCOC(=O)/C(C#N)=C(C)/C=C1\Sc2ccccc2N1CC	4%
CNC(=O)COC(=O)CCC(=O)c1cccs1	-1%

Retrieved by structure from the list above, six records:
SMILES	VDR inh
CC1(C)OC(=O)C2(Cc3ccccc3N3CCCCC32)C(=O)O1 (centres undefined)	-8%
COc1ccc(C(=O)OCC(=O)NC2CCCC2)cc1OC	-3%
COc1ccccc1Oc1cn[nH]c1-c1ccc(OCC(=O)NN)cc1O	-6%
COc1ccc2c(c1)C(NC(C)=O)C(=O)N2CCc1ccccc1 (centres undefined)	11%
COCC(=O)Nc1ccc(S(=O)(=O)Nc2ccccn2)cc1	-13%
C1CN(c2nc3nonc3nc2N2CCSCC2)CCO1	0%

(listing goes on)
SMILES	VDR inh
Cc1ccc(C(=O)C2CCN(CC(=O)Nc3ccc4c(c3)OCCO4)CC2)cc1	-4%
CCCCc1nnc(SCC(=O)Nc2nccs2)n1CC	-11%
CC(Sc1nnc(-c2ccco2)n1C)C(=O)N(C)C1CCCCC1 (centres undefined)	7%
Cc1coc2cc3oc(=O)c(CC(=O)NCCc4ccccc4F)c(C)c3cc12	7%
Clc1c(-c2nnc3n2CCC3)sc2ccccc12	-5%
CNC(=O)C1CCCN1S(=O)(=O)c1ccc(OC)cc1 (centres undefined)	8%
CCOC(=O)N1CCN(S(=O)(=O)c2cc([N+](=O)[O-])ccc2C)CC1	11%
COc1ccc(CNC(=O)C(OC(=O)c2ccco2)c2ccc(OC)cc2)cc1 (centres undefined)	20%
Cc1nc(SCC(=O)Nc2cc(C)on2)c2c3c(sc2n1)CCCC3	9%
COc1cc(C2CC(=O)Oc3cc4c(cc32)OCO4)cc(OC)c1OC (centres undefined)	1%&-21%
COc1ccccc1C1=NOC(C)(c2nnc(-c3cccc(Cl)c3)o2)C1 (centres undefined)	-3%
Cc1cc(C(F)(F)F)cc(NNC(=O)NC(=O)c2ccc(Cl)cc2)n1	60%[activator]
CNC(=O)COC(=O)c1ccc2c(c1)S(=O)(=O)c1ccccc1C2=O	-6%
COc1ccc(CCNC(=O)c2cc(-c3ccccc3)c(N3CCOCC3)s2)c(OC)c1OC	0%
COc1cc2c(cc1NC(=O)C(C)N1CCN(S(=O)(=O)c3ccccc3[N+](=O)[O-])CC1)oc1ccccc12 (centres undefined)	-10%
Cc1ccc(C(C(=O)NCCc2ccccc2)N(C(=O)c2csnn2)C2CC2)cc1 (centres undefined)	0%
Cc1c(Cl)c(C(=O)NC2C3CC4CC(C3)CC2C4)nn1C (centres undefined)	15%
Cc1ccc(/C=N/NC(=O)c2nnn(-c3nonc3N)c2C(C)C)o1	-3%
CC(CCO)Nc1nc2c(c(=O)n(C)c(=O)n2C)n1Cc1cccc(Br)c1 (centres undefined)	0%
CCCC(=O)Nc1ccccc1NC(=O)c1ccc2c(c1)OCO2	7%
CCCOc1ccccc1N1C(=O)CC(N2CCOCC2)C1=O (centres undefined)	-8%
CCOc1ccc(CCNC(=O)CCS(=O)(=O)c2ccc(Cl)cc2)cc1OCC	?
Cc1ccc(CN2CCN(Cc3ccccc3-c3ccco3)CC2CCO)o1 (centres undefined)	-6%
Cc1ccc(-c2nnn(CC(=O)N(c3ccccc3)C(C(=O)NC(C)(C)C)c3cccs3)n2)o1 (centres undefined)	-4%
CCOC(=O)C1=C(c2cccc(F)c2)NC(=S)NC1C (centres undefined)	-6%
CN1C(=O)/C(=C\c2ccccc2F)Sc2ccc(C(=O)NC3CCN(Cc4ccccc4)CC3)cc21	-24%
CCOC(=O)c1ccc(Nc2ccc(-c3ccc(OC)c(OC)c3)nn2)cc1	14%
Cc1ccc(C)c(N=C2CCCN2Cc2ccccc2)c1C#N	-1%
COc1ccccc1CCNC(=O)c1cc(C2CC2)nc2c1cnn2C(C)C	5%
O=C1NC(=O)/C(=C\c2cn(Cc3ccccc3F)c3ccccc23)N1	-9%
COc1ccc(CNC(=O)c2cc(S(=O)(=O)N3CCOCC3)cn2C)cc1	-1%
COC(=O)c1nc2nc(-c3cccs3)cc(C(F)(F)F)n2n1	5%
CCN(CC)C(=O)C(=O)Nc1ccc(Oc2ccccc2)cc1	8%
COc1cc(-c2nn3c(C4CCCCC4)nnc3s2)cc(OC)c1OC	4%
CC(C)CCn1nnnc1C(c1ccc(N(C)C)cc1)N1CCN(C(=O)c2ccco2)CC1 (centres undefined)	-4%
CC1CCN(CC(O)COc2ccc(-c3ccccc3)cc2)CC1 (centres undefined)	-3%
O=C(CCC1CCCN(C(=O)c2ccc3c(c2)OCO3)C1)N1CCN(c2ccccn2)CC1 (centres undefined)	-12%
CCCc1nc(S(=O)(=O)Cc2ccc(Cl)cc2Cl)n[nH]1	7%
c1ccc(-c2csc(N3CCN(c4ccccn4)CC3)n2)cc1	12%
CN(CC(=O)Nc1ccc(F)cc1)CC(=O)N1CCCC1	-5%
Cc1ccc(N2C(=O)C3CC(c4ccccc4)=C4C5C=CC(C6C(=O)N(c7ccc(C)cc7C)C(=O)C56)C4C3C2=O)c(C)c1 (centres undefined)	-3%
Cc1nc(C)c(-c2ccc(SCC(=O)Nc3ccccc3F)nn2)s1	-1%
COc1ccc(Cl)cc1NC(=O)CSc1nnc(COc2ccccc2)n1N	-7%
COc1ccc(OC)c(NC(=O)C2CCN(S(=O)(=O)c3ccc4c(c3)CCCC(=O)N4)CC2)c1	0%
N#Cc1ccc(NS(=O)(=O)c2ccc(-c3cnc(C4CC4)o3)cc2)cc1	0%
Cc1c(NC(=O)COC(=O)c2cc(-c3cccc4ccccc34)nc3ccccc23)c(=O)n(-c2ccccc2)n1C	-1%
Cc1ccc(CCNC(=O)CS(=O)Cc2nc(-c3cccc(C)c3)oc2C)cc1 (centres undefined)	-25%
O=[N+]([O-])c1ccc(N2CCNCC2)cc1NCc1cccnc1	9%
CCn1c(CNC(=O)c2cccc(C)c2)nnc1SCC(=O)NC1=NCCS1	-20%
Cc1ccc2[nH]c(=O)c(CN(Cc3nnnn3C3CCCC3)C3CCCCC3)cc2c1	3%
NC(=O)CSc1nc2sc3c(c2c2ncnn12)CCCC3	-7%
CCN(c1ccccc1)S(=O)(=O)c1cccc(C(=O)NCC(c2ccco2)N2CCCCC2)c1 (centres undefined)	-1%
COc1ccc(Nc2ncc3c(n2)CC(c2ccccc2)CC3=O)cc1 (centres undefined)	1%
CC(C)C[C@H](NC(=O)c1cc2cc(Cl)ccc2n1C)C(=O)N1CCC(C(=O)O)CC1	-7%
CC1CCN(S(=O)(=O)c2ccc(NC(=O)CN3CCN(C)CC3)cc2)CC1	18%
CCN(CC)c1ccc(NC(=O)COc2ccccc2C)cc1S(=O)(=O)Nc1ccccc1OC	?
Cc1ccc(C)n1-c1ccc(N2CCOCC2)c([N+](=O)[O-])c1	-2%
Cc1ccc(-c2nn(-c3ccccc3)cc2/C=N/n2c(-c3ccncc3)n[nH]c2=S)cc1	0%
Cc1cc(NC(=O)CSCC(=O)N2CCN(c3cccc(C(F)(F)F)c3)CC2)no1	-8%

Source: PubChem BioAssay
